Source: PubChem BioAssay
ClpP mod: qHTS Assay for Activators of ClpP; ATP-dependent Clp protease proteolytic subunit (Bacillus subtilis (strain 168)), P80244; purified B. subtilis ClpP, FRET peptide cleavage, 20 min; Potency, µM (doses to about 57.5 µM), for the others: at the top dose activity change, negative = active; actives 1.9% (n = 340,000); AID 651965, 2013; active = well fitted falling curve with a large enough effect; inconclusive = small, poorly fitted or top-dose-only effect; inactive = no such curve, though single readings can be large or run the other way; note: potency is the fitted concentration of half-maximal effect; the source files actives as falling curves though it sought activators and does not explain the sign; nearly all actives have a fitted effect of over 65% in size; many hits overshoot -100%
Target sequence (P80244 whole entry, looked up): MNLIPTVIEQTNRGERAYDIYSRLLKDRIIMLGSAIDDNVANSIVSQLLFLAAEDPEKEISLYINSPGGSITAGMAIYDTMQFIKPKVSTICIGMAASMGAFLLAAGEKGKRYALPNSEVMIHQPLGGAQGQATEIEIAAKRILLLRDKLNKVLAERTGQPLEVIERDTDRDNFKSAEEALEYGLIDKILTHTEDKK
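FRET quenching reversal measured ClpP activation: 10 microg/mL B. subtilis ClpP at pH 8 with the FRET-FV decapeptide, read at 430 nm after 320 nm excitation. The 20-min minus 0-min signal was scaled between DMSO/no-enzyme wells and ADEP (5.8 microM final).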
gsp agonist: activates gsp, the McCune-Albright syndrome mutation. AID 624287. Potency, µM (doses to about 76.9 µM), without a hit: top-dose activation (cAMP increase), usual class: activators. gsp mutant cells, cAMP HTRF, 30 min; control for the full effect not named in the record. actives 0.13% (n = 340,000); active = well fitted activation curve with a large enough effect; inconclusive = small, poorly fitted or top-dose-only effect, or another doubt; inactive = no such curve, though single readings can be large or run the other way; cell line not stated here;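 note: phosphodiesterase inhibitor Ro 20-1724 added with compounds to block cAMP breakdown; potency is the fitted concentration of half-maximal effect; nearly all actives have a fitted effect of over 60% in size; about a fifth of the inactives were tested at one dose only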
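Cells stably selected in G418 were plated at 2000/well, grown 16-24 hr, then given compounds in DMSO with the PDE inhibitor […] (300 uM solution added) for 30 min at 37C; cAMP was read by HTRF.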
Menin MLL FP FL: displaces fluorescein MLL peptide from human menin; FP activity change, % at 61.4 µM; 290,000 tested, under 10 active; AID 1766; Fluorescence polarization, fluorescein-MLL peptide displacement from menin; inconclusive = falling polarisation curve, or a change in total fluorescence; inactive = total fluorescence flat and polarisation flat or rising; no compound was filed as active; the % refers to the polarisation; negative = inhibition;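 note: % of control where 0% means no effect; inhibitors lower the polarisation; unlabelled MLL peptide was the positive control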
TRPML1 ag: human mucolipin-1 channel agonism | actives 0.12% (n = 410,000) | Q9GZU1 | activation, % (test concentration not listed) | TRPML1-expressing cells, Ca2+ dye fluorescence, FDSS; host cell line not named in the record; reference of the full effect not given here; in the data active = activation above about 50%; inconclusive = about 30% to 50%; inactive = below about 30%; note: 0% is about no effect; the text of the record puts the active cut at 80%
Target sequence (Q9GZU1 whole entry, looked up): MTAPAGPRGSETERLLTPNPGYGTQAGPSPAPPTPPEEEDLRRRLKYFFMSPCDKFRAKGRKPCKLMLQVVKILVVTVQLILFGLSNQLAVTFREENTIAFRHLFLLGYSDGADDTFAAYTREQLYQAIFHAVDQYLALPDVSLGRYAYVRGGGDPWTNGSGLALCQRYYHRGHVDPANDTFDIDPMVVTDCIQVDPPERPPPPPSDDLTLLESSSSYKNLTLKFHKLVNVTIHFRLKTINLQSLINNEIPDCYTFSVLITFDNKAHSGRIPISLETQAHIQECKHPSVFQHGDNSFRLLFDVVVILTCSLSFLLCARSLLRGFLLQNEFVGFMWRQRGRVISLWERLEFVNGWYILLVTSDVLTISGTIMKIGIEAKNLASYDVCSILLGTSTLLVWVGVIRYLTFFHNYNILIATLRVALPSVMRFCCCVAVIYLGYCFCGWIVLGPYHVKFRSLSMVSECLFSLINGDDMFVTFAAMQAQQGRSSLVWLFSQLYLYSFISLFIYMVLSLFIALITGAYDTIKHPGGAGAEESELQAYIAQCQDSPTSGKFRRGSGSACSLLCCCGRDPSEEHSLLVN
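Kinetic FDSS Ca2+ read in Tet-induced TRPML1-DL cells (ABD Ca8 dye plus quencher, 45-90 min RT loading): baseline, then compound, then 110 s agonist window; EC80 agonist 54-4 at 4uM final added afterwards for a 110 s antagonist window.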
TRPML1 blocker: blocks the human TRPML1 channel | TRPML1-inducible cells, Ca2+ dye fluorescence, FDSS; active compounds read low; inhibition of EC80 agonist-evoked calcium signal | activity change, negative = inhibition, % (no concentration beside the values) | actives 0.02% (n = 390,000) | AID 624415; in the data active means activity change below about -50%; inconclusive means about -30% to -50%; inactive means above about -30%;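 note: stimulus is agonist 54-4 at its EC80 concentration; % is set by controls: 0 for no effect and ±100 for the full control effect; compound concentration not given in the record; the text of the record puts the active cut at -80%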
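Tet-induced TRPML1-DL cells loaded with Ca8 no-wash calcium dye were read kinetically on FDSS. Compound addition was followed by EC80 agonist 54-4 (4 uM final); inhibition was read over 110 s.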
gsp antagonist: gsp mutant antagonism; Potency, µM (highest dose often 76.9 µM), for the others: top-dose activity change, negative = inhibition, usual class: inhibitors; gsp-mutant cells, cAMP HTRF, 30 min; control for the full effect not named in the record; actives 0.4% (n = 340,000); AID 624288; active = falling curve of any shape with a large fitted effect; inconclusive = falling curve, mostly with a smaller effect; inactive = flat or rising curve; cell line not stated here;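 note: intracellular cAMP measured with PDE inhibitor Ro 20-1724 present during compound exposure; potency is the fitted concentration of half-maximal effect; % is set by controls: 0 for no effect and ±100 for the full control effect; nearly all actives have a fitted effect of over 65% in size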
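HTRF cAMP measurement after 30 min RT detection following 30 min, 37C compound treatment alongside […] (added as 300 uM solution) in G418-selected cells seeded at 2000/well and grown 16–24 h.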
Active calls of the source: *; ? = inconclusive; · = not tested or not shown; [ ] = remark or other dose.

structure,ClpP mod,gsp agonist,Menin MLL FP FL,TRPML1 ag,TRPML1 blocker,gsp antagonist
O=C(NCc1ccc(OC(F)(F)F)cc1)c1cccc2c1C(=O)c1ccc(N3CCCC3)cc1S2(=O)=O,-1.2%,6%,·,-0.3,-6,2%
CCOC(=O)C1(C)CCCN(C(=O)c2ccc(OC)cc2)C1 (stereo not drawn),-3.2%,·,·,-0.1,11,·
CN(C)S(=O)(=O)c1cccc(COC(=O)CN2C(=O)NC3(CCCC3)C2=O)c1,-0.2%,-32%,·,-0.1,3,3%
O=C(Cn1nnc2c(cnn2-c2ccccc2)c1=O)N1CCN(c2ccccc2F)CC1,-1.6%,-27%,0.1,-0.6,2,-19%
CC1CCCCN1CCCNC(=O)C1CCN(c2nc3ccccc3o2)CC1 (stereo not drawn),0.9%,-9%,4.8,0.0,15,9%
CCOC(=O)c1ccccc1NC(=O)COc1ccccc1,-8.4%,-5%,0.7,3.0,5,9%
CN1C(=O)C(CC#N)(C2(CC#N)C(=O)N(C)c3ccccc32)c2ccccc21 (stereo not drawn),-0.2%,·,·,0.2,-12,6%
O=C(O)[C@H](CO)Nc1ncnc2sc3c(c12)CCC3,-2.0%,?,0.1,0.8,-14,-1%

Continued.
structure,ClpP mod,gsp agonist,Menin MLL FP FL,TRPML1 ag,TRPML1 blocker,gsp antagonist
OB(O)c1cc2ccccc2s1,-6.0%,·,-0.3,-0.3,·,·
CCC1CCCCN1S(=O)(=O)c1ccc(NC(=O)C2CC(=O)N(C(C)(C)C)C2)cc1 (stereo not drawn),·,-8%[15.4 µM],·,-0.1,-14,0%
COCCNc1nc(C)cc(-c2cc(C(=O)NC3CCCC3)on2)n1,-0.8%,·,-2.7,-0.5,-7,8%
O=c1[nH]c(/C=C\c2cccc(Cl)c2)nc(O)c1[N+](=O)[O-],0.7%,?,6.3,-0.3,-5,-1%
CCCCOc1ccc(C(=O)NCC(=O)NCCOc2ccccc2OC)cc1,-1.5%,-20%,·,2.8,18,0%
O=C(CCC1COc2ccccc2O1)Nc1ccc(Cl)cn1 (stereo not drawn),-3.7%,-4%,-4.3,2.6,-3,1%
O=C(Nc1cccc(Cl)c1Cl)C1CCCC1,·,-1%[15.4 µM],·,1.2,-14,4%
CC1CCc2sc(C(=O)N/N=C/c3ccc([N+](=O)[O-])cc3)cc2C1 (stereo not drawn),-1.3%,-35%[inhibitor],0.3,0.8,4,1%

Remaining list, next part
structure,ClpP mod,gsp agonist,Menin MLL FP FL,TRPML1 ag,TRPML1 blocker,gsp antagonist
COc1ccc(C)cc1-n1nnnc1SCC(=O)Nc1cc(C)on1,1.6%,13%,6.8,1.2,12,-19%
N#Cc1cc(Sc2ccccn2)c(Sc2ccccn2)cc1C#N,-8.0%,7%,-0.8,-0.1,-4,7%
CC(=O)Nc1cccc(Oc2nc(-c3ccccn3)nc3ccccc23)c1,·,14%[15.4 µM],-1.5,0.4,6,-19%
Cc1onc(-c2c(Cl)cccc2Cl)c1C(=O)NCc1cccs1,-0.9%,-7%,3.3,-0.1,-10,4%
Cc1cc(C)n(/N=C/c2ccco2)c(=O)c1C#N,·,-24%[15.4 µM],0.7,0.1,5,13%
c1ccc2c(C[n+]3csc4ccccc43)cccc2c1,-4.0%,15%,1.2,-0.3,-8,7%
COc1cc(NC(C(=O)Nc2cccc(C(C)=O)c2)c2ccccc2)cc(OC)c1OC (stereo not drawn),-1.4%,?,4.3,0.7,24,-1%
CCC(=O)N1c2ccccc2NC2=C(C(=O)CCC2)C1c1ccco1 (stereo not drawn),·,-1%[15.4 µM],-2.1,-0.1,31,9%

(list continues)
structure,ClpP mod,gsp agonist,Menin MLL FP FL,TRPML1 ag,TRPML1 blocker,gsp antagonist
C1CCc2c(nc3nnnn3c2NCC2CC2)C1,0.9%,13%,1.3,-0.2,-8,4%
O=C(NC1CC1)c1ccc(CS(=O)c2ccccc2)o1 (stereo not drawn),1.2%,?,-2.3,-0.1,-18,11%
CN(C(=O)COC(=O)/C=C/c1ccc(C(F)(F)F)cc1)c1c(N)n(Cc2ccccc2)c(=O)[nH]c1=O,1.7%,-4%,·,0.1,-1,2%
COc1ccc(NC(=O)CSc2nnc(-c3ccccc3Cl)n2Cc2ccco2)c(OC)c1,-2.6%,-21%,11,-0.7,-8,-18%
O=C(CSc1nnnn1-c1ccc2c(c1)OCCO2)N1CCc2ccccc21,-3.4%,12%,2.4,1.0,28,6%
O=C(Cn1c(=O)oc2cc(S(=O)(=O)N3CCCC3)ccc21)Nc1ccccc1Br,·,-11%[15.4 µM],-0.1,-0.3,10,-12%
C[N+](C)(C)CCCCCC[N+](C)(C)C,2.3%,·,1.5,-0.7,11,0%
Nc1nonc1C(=O)NCCNCc1c(OCc2ccccc2F)ccc2ccccc12,0.9%,29%,-0.3,1.6,-6,2%

Some of the entries above, set out differently:
Values run as follows: ClpP mod	gsp agonist	Menin MLL FP FL	TRPML1 ag	TRPML1 blocker	gsp antagonist
CCCCOc1ccc(C(=O)NCC(=O)NCCOc2ccccc2OC)cc1
  -1.5%	-20%	·	2.8	18	0%
O=C(CCC1COc2ccccc2O1)Nc1ccc(Cl)cn1 (stereo not drawn)
  -3.7%	-4%	-4.3	2.6	-3	1%
O=C(Nc1cccc(Cl)c1Cl)C1CCCC1
  ·	-1%[15.4 µM]	·	1.2	-14	4%
CC1CCc2sc(C(=O)N/N=C/c3ccc([N+](=O)[O-])cc3)cc2C1 (stereo not drawn)
  -1.3%	-35%[inhibitor]	0.3	0.8	4	1%
COc1ccc(C)cc1-n1nnnc1SCC(=O)Nc1cc(C)on1
  1.6%	13%	6.8	1.2	12	-19%
N#Cc1cc(Sc2ccccn2)c(Sc2ccccn2)cc1C#N
  -8.0%	7%	-0.8	-0.1	-4	7%
CC(=O)Nc1cccc(Oc2nc(-c3ccccn3)nc3ccccc23)c1
  ·	14%[15.4 µM]	-1.5	0.4	6	-19%
Cc1onc(-c2c(Cl)cccc2Cl)c1C(=O)NCc1cccs1
  -0.9%	-7%	3.3	-0.1	-10	4%
Cc1cc(C)n(/N=C/c2ccco2)c(=O)c1C#N
  ·	-24%[15.4 µM]	0.7	0.1	5	13%
c1ccc2c(C[n+]3csc4ccccc43)cccc2c1
  -4.0%	15%	1.2	-0.3	-8	7%
COc1cc(NC(C(=O)Nc2cccc(C(C)=O)c2)c2ccccc2)cc(OC)c1OC (stereo not drawn)
  -1.4%	?	4.3	0.7	24	-1%
CCC(=O)N1c2ccccc2NC2=C(C(=O)CCC2)C1c1ccco1 (stereo not drawn)
  ·	-1%[15.4 µM]	-2.1	-0.1	31	9%
C1CCc2c(nc3nnnn3c2NCC2CC2)C1
  0.9%	13%	1.3	-0.2	-8	4%
O=C(NC1CC1)c1ccc(CS(=O)c2ccccc2)o1 (stereo not drawn)
  1.2%	?	-2.3	-0.1	-18	11%
CN(C(=O)COC(=O)/C=C/c1ccc(C(F)(F)F)cc1)c1c(N)n(Cc2ccccc2)c(=O)[nH]c1=O
  1.7%	-4%	·	0.1	-1	2%
COc1ccc(NC(=O)CSc2nnc(-c3ccccc3Cl)n2Cc2ccco2)c(OC)c1
  -2.6%	-21%	11	-0.7	-8	-18%
O=C(CSc1nnnn1-c1ccc2c(c1)OCCO2)N1CCc2ccccc21
  -3.4%	12%	2.4	1.0	28	6%

(more compounds)
structure,ClpP mod,gsp agonist,Menin MLL FP FL,TRPML1 ag,TRPML1 blocker,gsp antagonist
O=S(=O)(NC1c2cccc3cccc(c23)C1Sc1ncccn1)c1ccccc1 (stereo not drawn),1.1%,-1%,1.1,1.5,-16,-6%
CC(Oc1ccc(Cl)cc1)C(=O)/C=C/N(C)C (stereo not drawn),1.2%,7%,-1.7,0.6,-1,-11%
COc1ccccc1OCC(=O)NC1CCCCCCC1,1.9%,-21%,·,1.6,-7,-7%
CC(C)Oc1ccc(CNC(=O)c2cc3cccc4c3n2CC(C)S4)cc1 (stereo not drawn),32µM*,·,·,1.1,32,·
CCc1ccc(NC(=O)CS(=O)CC(=O)NCC2OCCc3ccccc32)cc1 (stereo not drawn),1.0%,-39%[inhibitor],0.0,-0.1,7,10%
COc1ccc(NC(=O)NC2(C(=O)N3CCCCCC3)CCCCC2)cc1,-3.5%,-3%,1.0,2.4,6,2%
COc1cccc(C(=O)NCCc2csc(-c3cccc(F)c3)n2)c1OC,-10%,·,·,1.8,2,·
O=C(CN1C(=O)NC2(CCOc3ccccc32)C1=O)NCc1ccc(F)cc1 (stereo not drawn),-0.3%,-6%,·,1.7,-3,9%

Following part:
structure,ClpP mod,gsp agonist,Menin MLL FP FL,TRPML1 ag,TRPML1 blocker,gsp antagonist
C[C@@H]1CN([C@H](C)CO)C(=O)CCCn2nncc2CO[C@H]1CN(C)S(=O)(=O)c1ccccc1F,-3.0%,-74%[inhibitor],·,0.0,2,·
CO/N=C/c1ccc(Oc2ccc(C)cc2)nc1,-3.2%,-30%[inhibitor],6.1,1.9,-20,-5%[15.4 µM]
CC(=O)c1cccc(Nc2cc(C)nc3c(C)cccc23)c1,·,3%[15.4 µM],1.4,0.5,33,7%
COc1ccc(-c2cn[nH]c2-c2ccc(O)cc2O)cc1OC,·,5%,0.8,-0.9,-24,3%
COc1cccc(CC(=O)NCC2(N3CCCCC3)CCCCC2)c1,-0.6%,-1%,-0.5,0.4,-2,-1%
CCOC(=O)c1c(C=O)c(C)n(Cc2ccccc2)c1C,1.6%,15%,4.2,0.5,-4,3%
Cc1ccc(S(=O)(=O)CNC(=S)c2ccc3ccccc3c2)cc1,-4.5%,-28%,-2.0,0.8,-16,-5%
CC(C)Cc1nnc(NC(=O)C2CSC3(C)CCC(=O)N23)s1 (stereo not drawn),·,-1%[15.4 µM],·,0.4,4,-2%

New compounds follow
structure,ClpP mod,gsp agonist,Menin MLL FP FL,TRPML1 ag,TRPML1 blocker,gsp antagonist
Cc1nc2ccc(S(=O)(=O)NCC(=O)NCc3ccc4c(c3)OCO4)cc2s1,1.5%,2%,-3.5,-0.4,-9,-1%
C/C(Cl)=C/Cn1c(SCCN2CCOCC2)nc2c1c(=O)[nH]c(=O)n2C,-0.6%,?,7.7,-0.6,7,-7%
COc1ccc(C2Oc3ccccc3N2C(C)=O)cc1 (stereo not drawn),1.0%,?,3.0,-0.2,-16,9%
COc1ccc(NC(=S)N2CCN(S(=O)(=O)c3ccccc3)CC2)cc1OC,2.4%,-6%[15.4 µM],-3.1,-0.1,-24,7%
CN(C)c1ccc(CNC(=O)c2ccc(NC(=O)N3CCCCc4ccccc43)cc2)cc1,-1.8%,·,·,0.1,-15,·
Cc1cc(C(=O)OCC(=O)Nc2cccnc2Cl)c2ccccc2n1,·,14%[15.4 µM],-0.8,1.9,22,-6%
